FGF22 binding – shifts melting point of recombinant human FGF22 | 340,000 tested, 1.5% active | recombinant FGF22 thermal shift, SYPRO orange fluorescence; percent of sucrose octasulfate shift, DMSO zero | Q9HCT0 | calls only at 9.99 µM;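 active means melting point raised past a set limit in the mean and every replicate; inconclusive means no clear call; three in four hits are not shown here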
Target sequence (Q9HCT0 whole entry, looked up): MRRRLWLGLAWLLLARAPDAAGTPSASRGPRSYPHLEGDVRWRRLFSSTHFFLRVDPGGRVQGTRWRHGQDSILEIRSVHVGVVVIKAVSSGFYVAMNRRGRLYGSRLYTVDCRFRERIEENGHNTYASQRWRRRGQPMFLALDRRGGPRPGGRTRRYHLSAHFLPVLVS
MLL AF4-AF9 inh – MLL-AF4/AF9 protein interaction inhibition; P42568; AlphaScreen, biotin-AF4 peptide binding to FLAG-AF9; inhibition, % at 10 µM; 350,000 tested, 0.47% active; AID 651704;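 active means every replicate reaching a set inhibition limit, whatever the replicate mean, cut at about 25% in these data; inconclusive means mean inhibition reaches that limit but some replicates miss it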;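 further: 0% = plate neutral control median and 100% = total signal loss; the record names both 10 and 1 µM as test concentration; the first replicate is given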
Target sequence (P42568 whole entry, looked up): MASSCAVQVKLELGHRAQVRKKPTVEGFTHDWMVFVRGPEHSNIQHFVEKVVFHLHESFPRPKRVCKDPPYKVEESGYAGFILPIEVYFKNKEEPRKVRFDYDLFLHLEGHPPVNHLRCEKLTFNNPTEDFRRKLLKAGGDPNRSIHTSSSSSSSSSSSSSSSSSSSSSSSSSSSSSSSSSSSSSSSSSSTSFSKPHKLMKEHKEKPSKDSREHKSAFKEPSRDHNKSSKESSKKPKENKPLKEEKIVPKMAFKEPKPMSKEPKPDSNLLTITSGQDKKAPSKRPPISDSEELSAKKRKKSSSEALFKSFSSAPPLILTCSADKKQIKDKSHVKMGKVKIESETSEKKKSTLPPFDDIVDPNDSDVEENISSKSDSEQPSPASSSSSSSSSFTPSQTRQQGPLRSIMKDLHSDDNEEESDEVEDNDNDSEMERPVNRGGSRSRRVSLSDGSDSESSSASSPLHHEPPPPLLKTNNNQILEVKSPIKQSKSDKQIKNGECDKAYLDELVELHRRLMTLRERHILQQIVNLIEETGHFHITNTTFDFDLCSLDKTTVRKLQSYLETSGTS
rRNA inh HTS – inhibitors of bacterial rRNA selective over humanized ribosomes | AID 720706 | GFP signal change (wild-type ribosome), % (test concentration not listed) | E. coli WT GFP vs humanized-ribosome RFP mutants, fluorescence, 24 h; hits give low values; DMSO median 0, no signal -100 | 350,000 tested, 1.6% active;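 active means significant combined selectivity score with lowered wild-type GFP, culture density cut under 30%, mutant RFP and density less affected; inactive means any of these conditions unmet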; further: one replicate is shown; some compounds called inactive have numbers as strong as hits
rRNA inh HTS OD600 – recorded beside rRNA inh HTS, whose call it bears; OD600 change, %; measured here: OD600 growth;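 optical density of the mix in the first replicate; 0 = DMSO median and -100 = no signal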
rRNA inh HTS RFP – also measured in rRNA inh HTS; calls as there; RFP signal change, %; measured here: RFP humanized mutant strains;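 first replicate; 0 = DMSO median and -100 = no signal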
Numbers without * were called inactive; i = inactive; u = inconclusive.

Values run as follows: FGF22 binding	MLL AF4-AF9 inh	rRNA inh HTS	rRNA inh HTS OD600	rRNA inh HTS RFP
CCCNC(=O)C[C@H]1CC[C@@H]2[C@@H](COc3ccc(NS(=O)(=O)CC)cc3C(=O)N2C)O1
→ i	-1.5	3.1	1.1	0.1
C[C@@H]1CN([C@H](C)CO)C(=O)Cc2cc(NC(=O)Nc3ccc(F)cc3)ccc2O[C@H]1CN(C)C(=O)Nc1ccc2c(c1)OCO2
→ i	1.0	-0.4	5.7	-1.1
COc1ccc(S(=O)(=O)N(C)C[C@@H]2OCCCC[C@@H](C)Oc3ccc(NS(=O)(=O)c4ccc(F)cc4)cc3C(=O)N([C@H](C)CO)C[C@H]2C)cc1
→ i	-0.5	-0.6	-5.4	0.7
CCc1nc2c(OCc3ccccc3C(=O)OC)cccn2c1N(C)C(=O)Nc1ccccc1OC
→ i	5.8	-21.6	-59.4	-8.1
C[C@@H]1CN([C@@H](C)CO)C(=O)c2cc(NS(=O)(=O)c3ccc(F)cc3)ccc2O[C@H]1CN(C)S(=O)(=O)c1cn(C)cn1
→ i	-5.9	0.7	7.5	-3.4
CCNC(=O)C[C@H]1CC[C@@H]2[C@H](COc3ccc(NS(=O)(=O)c4ccccc4C)cc3C(=O)N2C)O1
→ i	-1.0	1.8	3.2	-1.8
COc1ccccc1CNC(=O)c1cc(-c2cc(F)ccc2OC(C)C)n[nH]1
→ i	-0.6	-8.5	-15.7	-0.8
COC(=O)c1cc2c(c3c4cc(F)ccc4n(C(=O)c4ccccc4)c13)C(=O)N(C1CCCCC1)C2
→ i	3.3	1.2	-9.8	7.9
CC(C)NC(=O)N(C)C[C@@H]1Oc2ccc(NS(=O)(=O)c3ccc(F)cc3)cc2CC(=O)N([C@@H](C)CO)C[C@H]1C
→ i	-0.3	1.6	9.8	-0.6
CC(C)c1ncc(CO)n1Cc1c(Cl)cccc1Cl
→ i	-0.2	1.7	4.9	-7.5
C[C@@H]1CCCCO[C@@H](CN(C)Cc2ccc(C(F)(F)F)cc2)[C@H](C)CN([C@H](C)CO)C(=O)c2cc(NC(=O)Cc3ccccc3)ccc2O1
→ i	1.0	0.0	-13.4	5.3
CC(C)C[C@@H](CN1CCC[C@H]1CN1C(=O)C(=O)NC[C@@H]1Cc1ccccc1)N1C[C@H](Cc2ccc(O)cc2)N(CCc2ccccc2)C(=O)C1=O
→ i	-0.9	-8.3	-8.5	10.4
C[C@H](CO)N1C[C@H](C)[C@@H](CN(C)S(=O)(=O)c2ccc(F)cc2)OCCCC[C@H](C)Oc2ccc(N(C)C)cc2C1=O
→ i	3.5	-4.3	-5.3	-3.5
O=C(C[C@H]1CC[C@H]2[C@@H](COC[C@@H](O)CN2Cc2ccncc2)O1)NCc1ccccc1Cl
→ i	-2.1	-0.1	11.4	-0.1
C[C@@H]1CN([C@@H](C)CO)C(=O)c2cc(NS(=O)(=O)c3ccc(Cl)cc3)ccc2O[C@H]1CN(C)C(=O)NC1CCCCC1
→ i	-2.0	-5.6	-5.5	1.9
Cc1ccc(S(=O)(=O)N2C[C@H](O)COC[C@H]3O[C@H](CC(=O)NCc4ccc5c(c4)OCO5)CC[C@@H]32)cc1
→ i	4.9	-1.8	12.1	-2.4
O=C(Nc1ccccc1F)N[C@@H]1CC[C@@H](CCNC(=O)C2CCOCC2)O[C@@H]1CO
→ i	-0.6	-0.2	6.5	-1.0
CCC(=O)N1C[C@@H](C)[C@H](OC)CN(C)C(=O)c2cc(NC(=O)Nc3ccccc3)ccc2OC[C@@H]1C
→ i	0.5	-0.2	0.9	-0.2
C[C@H]1CCCCO[C@@H](CN(C)S(=O)(=O)c2ccc(F)cc2)[C@@H](C)CN([C@@H](C)CO)C(=O)c2cc(N(C)C)ccc2O1
→ i	u	-2.2	-4.8	1.1
CS(=O)(=O)N1[C@@H](C#N)[C@H](c2ccccc2)[C@@H]1CO
→ i	-1.6	2.9	9.3	0.2

Gathered by group, those above containing two or more sulfur atoms.
Values run as follows: FGF22 binding	MLL AF4-AF9 inh	rRNA inh HTS	rRNA inh HTS OD600	rRNA inh HTS RFP
COc1ccc(S(=O)(=O)N(C)C[C@@H]2OCCCC[C@@H](C)Oc3ccc(NS(=O)(=O)c4ccc(F)cc4)cc3C(=O)N([C@H](C)CO)C[C@H]2C)cc1
→ i	-0.5	-0.6	-5.4	0.7
C[C@@H]1CN([C@@H](C)CO)C(=O)c2cc(NS(=O)(=O)c3ccc(F)cc3)ccc2O[C@H]1CN(C)S(=O)(=O)c1cn(C)cn1
→ i	-5.9	0.7	7.5	-3.4

2 of these compounds, set out differently:
> C[C@@H]1CN([C@@H](C)CO)C(=O)c2cc(NS(=O)(=O)c3ccc(F)cc3)ccc2O[C@H]1CN(C)S(=O)(=O)c1cn(C)cn1
  FGF22 binding: i	MLL AF4-AF9 inh: -5.9	rRNA inh HTS: 0.7	rRNA inh HTS OD600: 7.5	rRNA inh HTS RFP: -3.4

> C[C@@H]1CN([C@@H](C)CO)C(=O)c2cc(NS(=O)(=O)c3ccc(Cl)cc3)ccc2O[C@H]1CN(C)C(=O)NC1CCCCC1
  FGF22 binding: i	MLL AF4-AF9 inh: -2.0	rRNA inh HTS: -5.6	rRNA inh HTS OD600: -5.5	rRNA inh HTS RFP: 1.9

New compounds follow.
Values run as follows: FGF22 binding	MLL AF4-AF9 inh	rRNA inh HTS	rRNA inh HTS OD600	rRNA inh HTS RFP
Cc1ccc(S(=O)(=O)Nc2ccc3c(c2)CC(=O)N([C@H](C)CO)C[C@@H](C)[C@H](CN(C)CC2CC2)O3)cc1
→ i	0.0	0.3	6.4	-4.4
C[C@@H]1CN([C@@H](C)CO)C(=O)c2cc(/C=C/c3ccccc3)cnc2O[C@@H]1CN(C)S(=O)(=O)c1cn(C)cn1
→ i	1.7	-1.5	-9.1	-3.0
Cc1ccccc1S(=O)(=O)N1CCCCN2[C@H](CO)[C@@H](c3ccc(-c4cccc(F)c4)cc3)[C@H]2C1
→ i	6.2	-35.6	-35.9	-2.7
CC12CC(=O)C3C(CCC4=CC(=O)CCC43C)C1CC=C2CC(=O)O (stereo not given)
→ i	2.2	3.5	12.4	3.2
C/C=C/c1ccc([C@H]2[C@@H](C#N)N(C(=O)NC3CCCC3)[C@H]2CO)cc1
→ i	-3.1	0.2	-0.1	-0.8
COc1cccc(C(N)c2nc(-c3cc(F)cc(F)c3)cs2)c1 (stereo not given)
→ i	-0.5	11.5	9.1	-2.2
CC1(C)OC(=O)C2=C(CC(CCc3ccccc3)OC2c2ccc(F)cc2)O1 (stereo not given)
→ i	1.9	-19.6	-21.5	-3.2
CNC(=O)C[C@@H]1CC[C@H]2[C@H](COc3ccc(NC(=O)c4ccc(F)cc4)cc3C(=O)N2C)O1
→ i	-1.7	0.5	-1.9	-2.1
COc1ccccc1-c1cnc(C(O)c2ccc(F)cc2C)[nH]1 (stereo not given)
→ i	0.3	10.6	-2.7	-0.2
C[C@H]1Cn2cnc(C(=O)NCc3ccc(CNC(=O)OC(C)(C)C)cc3)c2C(=O)N1
→ i	-1.1	10.3	6.9	-1.3
Cc1nc(Cc2nnc(SCC(=O)N3CCN(c4ccccc4)CC3)o2)cs1
→ i	-1.6	14.4	1.8	5.9
C[C@@H]1CN([C@H](C)CO)C(=O)Cc2cc(NS(=O)(=O)c3cn(C)cn3)ccc2O[C@@H]1CN(C)Cc1ccc(Oc2ccccc2)cc1
→ i	5.9	3.4	-6.8	2.5
C[C@@H]1CN([C@@H](C)CO)C(=O)c2cc(-c3cccc(F)c3)cnc2O[C@H]1CN(C)C
→ i	-1.9	0.9	6.5	-2.6
COc1ccc(CN(C)C[C@@H]2Oc3ccc(NS(=O)(=O)c4ccc(Cl)cc4)cc3CC(=O)N([C@H](C)CO)C[C@H]2C)cc1
→ i	3.0	-27.4	-57.0	3.0
Cc1ccc(S(=O)(=O)N[C@H]2CC[C@H](CCNC(=O)CN3CCOCC3)O[C@@H]2CO)cc1
→ i	0.3	1.5	2.2	-0.1
COCC(=O)Nc1ccc2c(c1)C(=O)N(C)C[C@@H](OC)[C@H](C)CN(C(=O)c1ccccc1F)[C@@H](C)CO2
→ i	-1.8	0.0	-2.6	0.3
Cc1noc(C)c1NC(=O)Nc1cccc2c1O[C@@H](CN(C)S(=O)(=O)c1ccc(F)cc1)[C@H](C)CN([C@@H](C)CO)C2=O
→ i	-1.7	-0.8	-2.5	-2.2
C[C@H](CO)N1C[C@H](C)[C@H](CN(C)Cc2ccc(F)cc2)Oc2ncc(-c3ccccc3F)cc2C1=O
→ i	-6.3	0.3	4.6	1.1
C[C@@H]1CN([C@@H](C)CO)C(=O)c2cccc(NC(=O)C3CCCCC3)c2O[C@@H]1CN(C)C(=O)Nc1ccc(C(F)(F)F)cc1
→ i	3.9	-0.5	-1.6	-0.6
CCCNC(=O)[C@@H]1[C@@H](CO)[C@@H]2Cn3c(ccc(-c4ccncc4)c3=O)[C@@H]2N1C(=O)c1ccccc1F
→ i	-1.4	2.9	4.1	-0.4

Other compounds:
SMILES | FGF22 binding | MLL AF4-AF9 inh | rRNA inh HTS | rRNA inh HTS OD600 | rRNA inh HTS RFP
C[C@H]1CN([C@@H](C)CO)C(=O)c2cc(-c3ccc(C#N)cc3)cnc2O[C@@H]1CN(C)C(=O)Nc1ccccc1 | i | 0.4 | -3.8 | 0.1 | -3.9
CCc1ccc(Cn2ncc3c(C(=O)O)cc(C)nc32)cc1 | i | 6.9 | -3.1 | -4.7 | 4.9
COc1ccc(S(=O)(=O)n2c(N)nc3ccccc32)cc1 | i | -2.5 | -2.2 | -7.5 | -0.3
O=C(C[C@H]1C=C[C@H](NC(=O)NC2CCCCC2)[C@@H](CO)O1)NCc1ccc(F)cc1 | i | -0.8 | -0.6 | 0.2 | 2.2
CO[C@@H]1CN(C)C(=O)c2ccc(NC(=O)c3cccc(F)c3)cc2OC[C@H](C)N(C(C)=O)C[C@@H]1C | i | -1.1 | -2.6 | -0.1 | 0.1
C[C@H]1CN([C@@H](C)CO)S(=O)(=O)c2ccc(-c3cccnc3)cc2O[C@H]1CN(C)C(=O)NC1CCCC1 | i | 0.4 | -2.5 | -1.4 | -1.7
C=CCNc1nc(NCc2ccc(NC(C)=O)cc2)c2sc(-c3ccccc3)cc2n1 | i | -0.1 | -57.0 | -75.2 | -13.6
CO[C@H]1CN(C)C(=O)c2cc(NS(C)(=O)=O)ccc2OC[C@@H](C)N(Cc2ccccc2)C[C@H]1C | i | -1.4 | 0.9 | 6.5 | -0.9
CCCNC(=O)N1CC2(C1)[C@H](c1ccccc1)[C@@H](CO)N2Cc1cccc(Cl)c1 | i | 0.5 | -1.7 | -6.4 | 0.7
COc1cc(-c2cc(OC)c(O)c(OC)c2)cc(OC)c1O | i | -22.3 | 46.1 | -1.1 | -2.9
CN1C(=O)c2cc(NS(=O)(=O)c3ccc(Cl)cc3)ccc2OC[C@H]2O[C@@H](CC(=O)O)CC[C@H]21 | i | -1.8 | -4.0 | -4.4 | -1.5
N[C@H]1CC[C@H](CCn2cc(-c3ccccn3)nn2)O[C@@H]1CO | i | -1.7 | 2.1 | 6.2 | 0.5
CO[C@H]1CN(C)C(=O)c2ccc(NC(=O)C3CC3)cc2OC[C@H](C)N(CCC(F)(F)F)C[C@H]1C | i | 0.5 | -6.9 | -2.3 | -0.2
COCC(=O)Nc1ccc2c(c1)OC[C@H](C)N(Cc1cc(F)ccc1F)C[C@@H](C)[C@H](OC)CN(C)C2=O | i | 0.9 | -6.7 | -9.8 | 0.5
O=C(Nc1ccc(F)c(Cl)c1)c1ccccc1NC(=O)C1CCCCC1C(=O)O (stereo not given) | i | 0.2 | -23.1 | -25.9 | -16.5
O=C(C[C@H]1C[C@H]2c3cc(NC(=O)NC4CCCC4)ccc3O[C@H]2[C@H](CO)O1)NCC1CC1 | i | -1.7 | 2.7 | 5.7 | -2.7
C[C@@H]1CCCCO[C@H](CN(C)C(=O)Nc2ccc3c(c2)OCO3)[C@@H](C)CN([C@H](C)CO)C(=O)c2cc(NS(=O)(=O)c3ccccc3)ccc2O1 | i | 4.4 | 1.5 | 9.9 | -0.5
COc1ccc(S(=O)(=O)N(C)C[C@@H]2Oc3ccc(NC(=O)CCN4CCOCC4)cc3CC(=O)N([C@@H](C)CO)C[C@@H]2C)cc1 | i | -1.1 | 2.0 | 8.2 | -1.6
COc1ccc2c3c([nH]c2c1)[C@@H](CO)N(C(=O)c1ccccn1)CC31CN(C(=O)C2CCC2)C1 | i | 1.3 | 3.5 | 2.4 | -2.1
CN1C(=O)c2cc(NC(=O)C3CCCCC3)ccc2OC[C@@H]2O[C@@H](CC(=O)NCCc3ccncc3)CC[C@H]21 | i | -1.6 | 3.3 | 6.2 | -2.0
O=C1OCCN1N1CCOC1=O | i | 0.5 | 5.5 | 11.2 | -2.4
Cc1ccccc1OC1(C)CCN(Cc2ccc(-c3ccccn3)cc2)C1 (stereo not given) | i | 5.4 | -8.2 | -26.9 | 1.0

Screens from PubChem BioAssay.

An excerpt, so the mix of outcomes need not match the whole.
